Assay outcomes as filed in PubChem.
Ran importin: inhibitors of Ran–importin-beta complex formation, primary screen, biochemical, CFP-Ran/YFP-importin-beta FRET, RCC1, cell-free (AID 434961); CFP-Ran/YFP-importin-beta FRET, cell-free; stronger effect = higher value; inhibition, %; hit rate 0.2% among 7,700;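 active = more than half of the replicate wells above 15% inhibition; inconclusive = exactly half above it; inactive = fewer than half above it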;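 also: 0% = DMSO wells and 100% inhibition = RanGDP control wells on each plate; stock of unstated strength diluted about 400-fold; mean of two wells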
* marks the source's active call; other numbers are inactive results; ? = inconclusive.

entry | Compound | Ran importin
1 | C[C@H](CO)N1C[C@H](C)[C@@H](CN(C)S(=O)(=O)c2ccc3c(c2)OCCCO3)OCc2cn(nn2)CCCC1=O | -0.6
2 | C[C@@H]1CN([C@H](C)CO)C(=O)CCCn2cc(nn2)CO[C@H]1CN(C)S(=O)(=O)c1ccccc1 | -1.0
3 | C[C@H]1CN([C@@H](C)CO)C(=O)c2cccc(NC(=O)NC3CCCCC3)c2O[C@@H]1CN(C)S(=O)(=O)c1ccccc1 | 3.8
4 | C[C@@H]1CN([C@@H](C)CO)C(=O)c2cc(NS(C)(=O)=O)ccc2O[C@@H](C)CCCCO[C@H]1CN(C)C(=O)c1ccncc1 | 2.8
5 | C[C@H](CO)N1C[C@H](C)[C@@H](CN(C)C(=O)Nc2ccc(C(F)(F)F)cc2)Oc2ccc(NC(=O)NC3CCCCC3)cc2C1=O | 3.8
6 | C[C@@H]1CCCCO[C@H](CN(C)C(=O)CCCN(C)C)[C@@H](C)CN([C@H](C)CO)C(=O)c2cc(N(C)C)ccc2O1 | 0.4
7 | C[C@H](CO)N1C[C@H](C)[C@@H](CN(C)C(=O)Nc2ccc3c(c2)OCO3)Oc2ccc(NC(=O)NC3CCCCC3)cc2C1=O | -3.6
8 | C[C@@H]1CCCCO[C@H](CN(C)Cc2ccccc2)[C@@H](C)CN([C@H](C)CO)C(=O)c2cc(NS(=O)(=O)c3cccs3)ccc2O1 | -1.9
9 | CNC[C@@H]1Oc2c(NC(=O)c3ccncc3)cccc2C(=O)N([C@@H](C)CO)C[C@@H]1C | -0.5
10 | Cc1noc(C)c1NC(=O)Nc1cccc2c1O[C@H](CN(C)C(=O)NC1CCCCC1)[C@@H](C)CN([C@@H](C)CO)C2=O | 1.2
11 | Cc1noc(C)c1NC(=O)N(C)C[C@H]1Oc2c(NC(=O)NC3CCCCC3)cccc2C(=O)N([C@H](C)CO)C[C@H]1C | -3.2
12 | C[C@H](CO)N1C[C@H](C)[C@@H](CN(C)C)Oc2ccc(NC(=O)Nc3ccc(C(F)(F)F)cc3)cc2C1=O | -2.6
13 | C[C@@H]1CN([C@H](C)CO)C(=O)Cc2cc(NC(=O)C3CC3)ccc2O[C@@H]1CN(C)C | 0.7
14 | C[C@@H]1CN([C@H](C)CO)C(=O)Cc2cc(NC(=O)c3ccncc3)ccc2O[C@@H]1CN(C)C(=O)Nc1ccc(F)cc1 | ?
15 | C[C@H](CO)N1C[C@H](C)[C@H](CN(C)C(=O)c2ccccc2)OCCCC[C@H](C)Oc2ccc(NS(=O)(=O)c3ccccc3)cc2C1=O | 5.6
16 | COc1ccc(S(=O)(=O)Nc2cccc3c2O[C@H](CN(C)CC2CC2)[C@H](C)CN([C@H](C)CO)C3=O)cc1 | -1.4
17 | CNC[C@H]1OCCCC[C@@H](C)Oc2ccc(NC(=O)Nc3ccc4c(c3)OCO4)cc2C(=O)N([C@@H](C)CO)C[C@H]1C | 4.0
18 | C[C@H](CO)N1C[C@H](C)[C@H](CN(C)Cc2ccncc2)Oc2ccc(NC(=O)Nc3ccccc3)cc2CC1=O | -2.8
19 | Cc1cc(C(=O)Nc2cccc3c2O[C@H](CN(C)C(=O)NC2CCCCC2)[C@@H](C)CN([C@@H](C)CO)C3=O)n(C)n1 | 0.2
20 | C[C@@H]1CN([C@H](C)CO)C(=O)c2cccc(NC(=O)c3ccncc3)c2O[C@@H]1CN(C)Cc1ccc2c(c1)OCO2 | -2.3
21 | C[C@H](CO)N1C[C@H](C)[C@H](CN(C)S(=O)(=O)c2cccs2)Oc2ncc(-c3cc4ccccc4o3)cc2C1=O | -1.1
22 | C[C@H]1CN([C@@H](C)CO)C(=O)c2cc(NS(=O)(=O)c3cn(C)cn3)ccc2O[C@@H]1CN(C)C(=O)Nc1ccc2c(c1)OCO2 | -2.3
23 | C[C@H](CO)N1C[C@H](C)[C@@H](CN(C)C)Oc2ccc(NC(=O)CCN3CCOCC3)cc2C1=O | -4.2
24 | C[C@@H]1CN([C@H](C)CO)C(=O)CCCn2cc(nn2)CO[C@H]1CN(C)C(=O)OCc1ccccc1 | -0.1
25 | C[C@@H]1CCCCO[C@@H](CN(C)Cc2ccccc2)[C@@H](C)CN([C@H](C)CO)C(=O)c2cc(NC(=O)CCC(F)(F)F)ccc2O1 | -5.7
26 | Cc1noc(C)c1NC(=O)N(C)C[C@@H]1Oc2ccc(N(C)C)cc2CC(=O)N([C@H](C)CO)C[C@@H]1C | 1.6
27 | C[C@H](CO)N1C[C@H](C)[C@H](CN(C)C(=O)Nc2ccccc2)OCCCC[C@H](C)Oc2ccc(NC(=O)Nc3ccccc3)cc2C1=O | 0.8
28 | C[C@@H]1CCCCO[C@H](CN(C)C(=O)CCC(F)(F)F)[C@H](C)CN([C@H](C)CO)C(=O)c2cc(NS(=O)(=O)c3ccccc3)ccc2O1 | -1.8
29 | C[C@@H]1CCCCO[C@@H](CN(C)C(=O)Nc2ccccc2)[C@@H](C)CN([C@H](C)CO)C(=O)c2cc(NC(=O)Nc3ccccc3)ccc2O1 | -0.7
30 | C[C@H]1CCCCO[C@@H](CN(C)C(=O)Cc2ccccc2)[C@@H](C)CN([C@@H](C)CO)C(=O)c2cc(NS(=O)(=O)c3ccccc3)ccc2O1 | -4.0
31 | Cc1noc(C)c1NC(=O)Nc1cccc2c1O[C@H](CN(C)S(=O)(=O)c1cccs1)[C@H](C)CN([C@H](C)CO)C2=O | ?
32 | C[C@@H]1CCCCO[C@@H](CN(C)C(=O)CCC(F)(F)F)[C@H](C)CN([C@@H](C)CO)C(=O)c2cc(N(C)C)ccc2O1 | 2.0
33 | C[C@@H]1CN([C@H](C)CO)C(=O)c2cc(N(C)C)ccc2O[C@@H](C)CCCCO[C@H]1CN(C)Cc1ccccc1 | ?
34 | C[C@@H]1CN([C@@H](C)CO)C(=O)Cc2cc(NC(=O)Nc3ccc(C(F)(F)F)cc3)ccc2O[C@@H]1CN(C)C(=O)NC1CCCCC1 | 1.6
35 | C[C@H]1CN([C@@H](C)CO)C(=O)Cc2cc(NC(=O)C3CC3)ccc2O[C@@H]1CN(C)S(=O)(=O)c1cn(C)cn1 | -2.1
36 | Cc1noc(C)c1NC(=O)Nc1ccc2c(c1)C(=O)N([C@H](C)CO)C[C@H](C)[C@@H](CN(C)C(=O)C1CCCCC1)OCCCC[C@@H](C)O2 | 0.8
37 | CC(C)NC(=O)N(C)C[C@@H]1OCCCC[C@H](C)Oc2ccc(NC(=O)CCCN(C)C)cc2C(=O)N([C@H](C)CO)C[C@@H]1C | -1.0
38 | Cc1noc(C)c1S(=O)(=O)Nc1ccc2c(c1)C(=O)N([C@H](C)CO)C[C@H](C)[C@H](CN(C)C(=O)Nc1ccc3c(c1)OCO3)O2 | -3.6
39 | C[C@@H]1CN([C@@H](C)CO)C(=O)c2cc(NC(=O)NC3CCCCC3)ccc2O[C@@H]1CN(C)S(=O)(=O)c1ccc(Cl)cc1 | -0.4
40 | C[C@H](CO)N1C[C@H](C)[C@@H](CN(C)C(=O)Nc2ccccc2)OCCCC[C@H](C)Oc2ccc(NC(=O)Nc3ccccc3)cc2C1=O | 1.1
41 | Cc1noc(C)c1NC(=O)Nc1ccc2c(c1)C(=O)N([C@@H](C)CO)C[C@@H](C)[C@H](CN(C)Cc1ccccc1)O2 | 1.3
42 | Cc1noc(C)c1NC(=O)Nc1cccc2c1O[C@H](CN(C)S(=O)(=O)c1cn(C)cn1)[C@H](C)CN([C@H](C)CO)C2=O | ?
43 | COc1ccc(CN(C)C[C@H]2Oc3ccc(NC(=O)Cc4cn(C)c5ccccc45)cc3C(=O)N([C@@H](C)CO)C[C@H]2C)cc1 | -0.1
44 | C[C@@H]1CCCCO[C@@H](CN(C)Cc2ccc3c(c2)OCO3)[C@@H](C)CN([C@@H](C)CO)C(=O)c2cc(NS(=O)(=O)c3ccccc3)ccc2O1 | 0.2
45 | C[C@H](CO)N1C[C@H](C)[C@H](CN(C)S(=O)(=O)c2cn(C)cn2)Oc2c(NC(=O)Nc3ccc(C(F)(F)F)cc3)cccc2C1=O | ?
46 | C[C@@H]1CN([C@@H](C)CO)C(=O)Cc2cc(NS(=O)(=O)c3cn(C)cn3)ccc2O[C@@H]1CN(C)C(=O)Nc1cccc2ccccc12 | 3.0
47 | C[C@H](CO)N1C[C@H](C)[C@@H](CN(C)C)OCCCC[C@H](C)Oc2ccc(NC(=O)Nc3ccc(C(F)(F)F)cc3)cc2C1=O | -1.2
48 | C[C@@H]1CN([C@@H](C)CO)C(=O)c2cc(NS(C)(=O)=O)ccc2O[C@H]1CN(C)CC1CC1 | -3.7
49 | C[C@@H]1CCCCO[C@@H](CN(C)C)[C@H](C)CN([C@@H](C)CO)C(=O)c2cc(NS(C)(=O)=O)ccc2O1 | -6.9
50 | Cc1noc(C)c1NC(=O)Nc1cccc2c1O[C@H](CN(C)CC1CC1)[C@@H](C)CN([C@H](C)CO)C2=O | -4.4
51 | C[C@@H]1CN([C@@H](C)CO)C(=O)c2cc(NC(=O)CCCN(C)C)ccc2O[C@@H]1CN(C)Cc1ccc2c(c1)OCO2 | -9.9
52 | C[C@H](CO)N1C[C@H](C)[C@@H](CN(C)S(=O)(=O)c2ccccc2)Oc2c(cccc2N(C)C)C1=O | -2.9
53 | C[C@@H]1CN([C@H](C)CO)C(=O)Cc2cc(NC(=O)Nc3ccc(C(F)(F)F)cc3)ccc2O[C@@H]1CN(C)C(=O)NC1CCCCC1 | -2.2
54 | C[C@H]1CN([C@@H](C)CO)C(=O)c2cccc(NS(=O)(=O)c3ccc(Cl)cc3)c2O[C@@H]1CN(C)C(=O)Nc1ccc(F)cc1 | 0.7
55 | C[C@@H]1CN([C@H](C)CO)C(=O)c2cccc(NC(=O)c3ccc(-c4nccs4)cc3)c2O[C@@H]1CN(C)S(=O)(=O)c1cccs1 | 3.1
56 | C[C@@H]1CCCCO[C@@H](CN(C)C)[C@H](C)CN([C@@H](C)CO)C(=O)c2cc(NC(=O)Nc3ccc4c(c3)OCO4)ccc2O1 | -1.3
57 | Cc1cc(C(=O)Nc2cccc3c2O[C@@H](CN(C)Cc2ccc4c(c2)OCO4)[C@H](C)CN([C@@H](C)CO)C3=O)n(C)n1 | -1.5
58 | C[C@H]1CN([C@@H](C)CO)C(=O)Cc2cc(NC(=O)c3ccncc3)ccc2O[C@H]1CN(C)CC1CC1 | -0.7
59 | C[C@@H]1CN([C@@H](C)CO)C(=O)c2cc(NC(=O)NC3CCCCC3)ccc2O[C@@H]1CN(C)Cc1ccncc1 | -0.6
60 | C[C@@H]1CN([C@@H](C)CO)C(=O)c2cccc(NC(=O)Nc3ccc(C(F)(F)F)cc3)c2O[C@H]1CN(C)C(=O)Nc1ccc(F)cc1 | 1.4

Next section
entry | Compound | Ran importin
61 | CNC[C@@H]1OCCCC[C@@H](C)Oc2ccc(N(C)C)cc2C(=O)N([C@@H](C)CO)C[C@H]1C | -3.9
62 | C[C@@H]1CN([C@@H](C)CO)C(=O)c2cc(NC(=O)Nc3ccc(F)cc3)ccc2O[C@@H](C)CCCCO[C@H]1CN(C)C | -1.6
63 | C[C@@H]1CN([C@@H](C)CO)C(=O)c2cc(NC(=O)NC3CCCCC3)ccc2O[C@@H]1CN(C)C(=O)Nc1ccc(F)cc1 | 1.0
64 | C[C@@H]1CN([C@H](C)CO)C(=O)Cc2cc(NC(=O)CCC(F)(F)F)ccc2O[C@@H]1CN(C)Cc1ccc2c(c1)OCO2 | 4.1
65 | C[C@H](CO)N1C[C@H](C)[C@H](CN(C)C(=O)CCCN(C)C)OCCCC[C@H](C)Oc2ccc(NC(=O)c3ccncc3)cc2C1=O | 3.9
66 | C[C@@H]1CCCCO[C@H](CN(C)Cc2ccccc2)[C@H](C)CN([C@@H](C)CO)C(=O)c2cc(NC(=O)CCCN(C)C)ccc2O1 | 0.7
67 | C[C@@H]1CCCCO[C@@H](CN(C)C(=O)c2ccncc2)[C@H](C)CN([C@@H](C)CO)C(=O)c2cc(NS(C)(=O)=O)ccc2O1 | 1.2
68 | C[C@@H]1CN([C@H](C)CO)C(=O)Cc2cc(NS(=O)(=O)c3ccccc3)ccc2O[C@H]1CN(C)S(=O)(=O)c1ccc(F)cc1 | 0.6
69 | C[C@H](CO)N1C[C@H](C)[C@H](CN(C)S(=O)(=O)c2cccs2)Oc2ccc(NC(=O)Nc3ccc(F)cc3)cc2C1=O | -2.0
70 | C[C@H]1CN([C@@H](C)CO)C(=O)c2cccc(NC(=O)Nc3ccc(C(F)(F)F)cc3)c2O[C@H]1CN(C)Cc1ccncc1 | -0.5
71 | C[C@@H]1CCCCO[C@H](CN(C)C(=O)Nc2ccccc2)[C@@H](C)CN([C@H](C)CO)C(=O)c2cc(N(C)C)ccc2O1 | 5.7
72 | COc1ccc(CN(C)C[C@H]2OCCCC[C@H](C)Oc3ccc(NC(=O)Nc4c(C)noc4C)cc3C(=O)N([C@H](C)CO)C[C@@H]2C)cc1 | -0.5
73 | C[C@@H]1CN([C@@H](C)CO)C(=O)c2cccc(NC(=O)c3ccc(-c4nccs4)cc3)c2O[C@H]1CN(C)Cc1ccc(C(=O)O)cc1 | 1.1

These rows are one share of the data, so the mix of outcomes need not match the whole.
